Source: PubChem BioAssay (several laboratories)
Calb FLC – C. albicans growth modulation with fluconazole | growth inhibition, % (no concentration beside the values) | C. albicans CaCi-2 (fluconazole-resistant clinical isolate) + fluconazole, Alamar Blue growth, 48 h | AID 1979 | 0.57% of 300,000 active;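 active = most replicates above 75%; inconclusive = exactly half above 75%; inactive = most below 75%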;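 note: all wells also contain fluconazole at 8 µg/ml as a sub-toxic cotreatment; 0% = median of DMSO wells and 100% = median of geldanamycin control wells; wells of about 8 µL received 7.5 nL stock; the first replicate is given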
B2AR ag – human beta-2 adrenergic receptor agonism by FAP; P07550; Am2.2-beta2AR cells, FAP receptor internalization, flow cytometry; reference of the scale not given here; response, % (no concentration beside the values); 0.43% of 340,000 active;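 active = response above a set limit, near 3 SD of response in nonfluorescent compounds, cut at about 42% in these data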;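 note: stock transfer was 100 nL into about 11 µL; a reference agonist was the positive control; negative values mostly stem from fluorescent compounds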
Target sequence (P07550 whole entry, looked up): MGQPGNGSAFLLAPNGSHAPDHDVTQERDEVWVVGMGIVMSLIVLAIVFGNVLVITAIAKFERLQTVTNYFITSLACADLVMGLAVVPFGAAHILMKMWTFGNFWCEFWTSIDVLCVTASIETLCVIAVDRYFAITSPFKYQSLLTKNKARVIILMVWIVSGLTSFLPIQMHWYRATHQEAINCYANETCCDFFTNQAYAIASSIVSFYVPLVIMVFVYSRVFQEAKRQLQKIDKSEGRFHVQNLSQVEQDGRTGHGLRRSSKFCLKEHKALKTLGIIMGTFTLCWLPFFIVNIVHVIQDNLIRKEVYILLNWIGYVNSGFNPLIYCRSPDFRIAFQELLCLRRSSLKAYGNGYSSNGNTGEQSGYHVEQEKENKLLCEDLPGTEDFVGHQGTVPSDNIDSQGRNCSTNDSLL
RanGTP-Imp inh – disruptors of Ran-importin-beta complex formation – biochemical, FRET, CFP-Ran, YFP-importin-beta, homogeneous, primary screen; cell-free CFP-Ran/YFP-importin-beta FRET ratio; inhibition, % (no concentration beside the values); 1.1% of 300,000 active; AID 2216;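 active = most replicates above 15%; inconclusive = exactly half above 15%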;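 note: 0% = DMSO wells and 100% = Ran loaded with GDP instead of GTP; wells of about 40 µL received 100 nL stock; the first replicate is given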
LANA-H2B inh – blocks KSHV LANA binding to histone H2A/H2B; cell-free LANA-H2A/H2B peptide, fluorescence polarization; AID 2629; inhibition, % (concentration not given with the values); 0.6% of 320,000 active; Q9QR71; in the data active = inhibition mostly above about 10%, no sharp cut-off; inactive = mostly below about 6.7%;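 note: stock transfer was 7.5 nL into about 10 µL; 0% = median of vehicle wells and 100% = median of positive control wells; one replicate is shown; the record names a cut of 25% in any replicate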
ALR H2O2 inh – blocks human ALR sulfhydryl oxidase activity; P55789; purified ALR, DTT oxidation, H2O2 HRP-luminol luminescence; inhibition, % (concentration not given with the values); 3.8% of 290,000 active; AID 485317;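 active = mean and each replicate at 75% or more; inconclusive = only one of the two met; inactive = neither met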;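 note: stock transfer was 7.5 nL into about 7.5 µL; 0% = neutral wells and 100% = wells with inactivated enzyme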
Target sequence (P55789 whole entry, looked up): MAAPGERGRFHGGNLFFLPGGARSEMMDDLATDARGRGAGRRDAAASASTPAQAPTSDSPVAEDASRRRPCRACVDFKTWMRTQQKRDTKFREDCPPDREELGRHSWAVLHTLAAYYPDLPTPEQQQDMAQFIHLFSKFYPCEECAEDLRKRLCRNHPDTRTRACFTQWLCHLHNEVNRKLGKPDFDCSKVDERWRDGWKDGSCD
Vif TR-FRET – inhibitors of Vif binding to APOBEC3G peptide, primary screen, biochemical, TR-FRET, GST-Vif 1-94, biotin-A3G peptide, dose response retest (AID 1117319). TR-FRET GST-Vif / biotin-A3G peptide binding; higher % means a stronger effect; test concentration not given here; strong numbers were not always called active. inhibition, %; hits with a dose series show IC50 in µM. 0.57% of 260,000 active;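 active = above the screen mean plus three standard deviations and confirmed in dose response; inconclusive = results disagree or hit not tested in dose response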;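 note: Vif residues 1-94 fused to GST binding biotinylated APOBEC3G peptide 110-148; 0% = full assay without inhibitor and 100% = GST in place of GST-Vif; retest series ran down from 100 µM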
HNF4A DNA FP – change in binding of human HNF4 alpha to DNA. P41235. HNF4a-FITC DNA binding, fluorescence polarization, 1 h. activity change, % at 10 µM. 0.3% of 360,000 active; in the data active = activity change above about 30%, passing the limit was not always enough;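 note: controls were the assay level and a saturating level of protein; the project sought stronger binding though the title names inhibitors; some compounds called inactive have numbers as strong as hits; positive values seem to mean higher polarization but the record does not say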
Target sequence (P41235 whole entry, looked up): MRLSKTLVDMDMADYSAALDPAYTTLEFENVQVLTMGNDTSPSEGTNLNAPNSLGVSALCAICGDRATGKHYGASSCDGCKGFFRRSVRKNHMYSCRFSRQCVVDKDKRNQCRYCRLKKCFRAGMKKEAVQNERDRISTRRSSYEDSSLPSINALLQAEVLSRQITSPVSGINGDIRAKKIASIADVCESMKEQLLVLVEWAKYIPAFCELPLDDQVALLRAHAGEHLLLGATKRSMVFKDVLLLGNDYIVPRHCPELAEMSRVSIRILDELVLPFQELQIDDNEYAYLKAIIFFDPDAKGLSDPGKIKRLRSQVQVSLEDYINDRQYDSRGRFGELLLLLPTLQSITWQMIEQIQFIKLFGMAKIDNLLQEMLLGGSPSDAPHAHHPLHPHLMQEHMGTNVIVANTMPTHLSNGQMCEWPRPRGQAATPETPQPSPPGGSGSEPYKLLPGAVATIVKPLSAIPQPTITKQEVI
* marks the source's active call; other numbers are inactive results; u = inconclusive; x = no result given; & = joins results of further samples.

SMILES	Calb FLC	B2AR ag	RanGTP-Imp inh	LANA-H2B inh	ALR H2O2 inh	Vif TR-FRET	HNF4A DNA FP
OCCC1CN(Cc2nc3ccccc3[nH]2)CCN1C1CCCC1 (stereo not given)	-31	-1	3.4	-2.4	x	x	0.0
CCCn1c(N)c(C(=O)CSc2nnc3n2CCCCC3)c(=O)n(C)c1=O	x	2	x	3.8	-6	x	1.6
Cc1nnc(SCc2c(Cl)cccc2Cl)n(N)c1=O	0	-2	-1.3	2.2	-10	x	4.4
Brc1ccc(-c2cn3ccccc3n2)cc1	-1	-6	0.9	-0.9	-4	x	-2.6
Cc1ccc(CNC(=O)C(OC(=O)c2cccs2)C(C)C)cc1 (stereo not given)	-5	2	2.1	12	3	x	0.0
O=C1CCCC(=O)C1=C1SCCS1	-8	-6	3.8	2.7	-3	0%	3.9
Cc1ccc(N/C=C/C(=O)c2sc(-c3ccccc3)nc2C)cc1	-10	-12	0.1	-5.3	x	-4%	11
CN(C)c1ccc(C(=O)NCCCSc2ccccc2)cc1	-17	2	-0.6	3.7	23	3%	0.7
COc1cccc(-c2noc(-c3cccs3)n2)c1	-2	2	2.0	-0.8	x	0%	-0.8
COc1cccc2cc(C(=O)Nc3ccc(F)cc3)c(=Nc3ccc(C(=O)O)cc3)oc12	u	0	-3.2	-5.0	3	-11%	-83
CCc1ccc(Nc2nc(C)cc(C)c2C(N)=O)cc1	-9	0	0.2	1.7	11	x	-1.7
CCc1cccc(NC(=O)C2CCCN2C(=O)Nc2ccc(C)cc2)c1 (stereo not given)	-26	-7	-0.5	-0.3	2	x	-0.1
COc1cccc(/C=C(/CC(=O)Nc2ccc(N3CCOCC3)cc2)c2nc3ccccc3s2)c1	7	12	-1.8	-2.4	-4	-11%	15
O=C(CCC1CCCCC1)Nc1nccs1	-42	-11	u	-2.3	-3	0%	-1.7
CCc1ccc2nc(Nc3ncc(C(C)=O)c(C)n3)nc(C)c2c1	-2	-11	-3.1	-0.1	-5	24%	6.6
O=C1c2cccnc2C(=O)N1Cc1ccc(S(=O)(=O)N2CCN(c3ccccc3)CC2)cc1	0	-3	-0.1	1.9	3	x	3.7
COc1ccc(NC(=O)N(C)C[C@H]2Oc3ccc(NC(=O)CCN4CCOCC4)cc3C(=O)N([C@H](C)CO)C[C@@H]2C)cc1	x	-2	x	-0.3	0	x	2.0
CCN1CCN(CCCN(Cc2ccco2)C(=S)Nc2ccc(Cl)c(C)c2)CC1	2	6	4.6	0.8	x	0%	-2.4
O=C(O)CCN=C1CCCc2ccccc2N1	-7	5	1.3	-1.5	-2	u	-2.4
CCCC(=O)Nc1cccc2c1CCCC2	-3	6	-0.6	-0.3	-5	5%	1.8
CN(C)S(=O)(=O)c1cccc(NC(=O)C2Cc3ccccc3CN2C(=O)c2ccccc2)c1 (stereo not given)	7	-10	-5.5	-1.4	x	-1%	0.9
Cc1ccc(NC(=O)NCCN2C(=O)C3C4C=CC(C4)C3C2=O)cc1 (stereo not given)	1	5	0.3	-4.2	-5	u	6.7
COc1cc(OC)cc(-c2oc(=O)c3cc(OC)c(OC)cc3c2C(F)(F)F)c1	x	11	x	4.1	0	x	2.7
COc1cc(C=O)ccc1OC(=O)N1CCOCC1	4	10	-3.1	6.6	-18	-3%	0.9
COc1ccccc1-c1nnc(SCC(=O)NC2CCS(=O)(=O)C2)n1CCc1ccccc1 (stereo not given)	28	-10	-1.0	1.2	-1	x	-1.0
Cc1nn(C)c(C)c1S(=O)(=O)N(CC(=O)NC1CCCCCC1)c1ccc(C(C)C)cc1	-2	11	5.5	-1.1	2	2%	-0.1
CCN(CC)c1ccc(/C=N/NC(=O)CNC(=O)/C=C/c2ccco2)cc1	-2	-2	4.8	-8.2	x	x	1.1
Cc1nc2c(c(=O)c3ccccc3n2C)c(=O)n1-c1ccc(F)cc1	-1	-4	-1.2	-5.6	-6	x	-0.3
COc1cccc(C2=NOC(C(=O)Nc3cc(C)on3)C2)c1OC (stereo not given)	-12	-2	1.8	4.2	-4	22%	5.7
CCOC(=O)C1=C(C)NC(=O)NC1c1c(OC)ccc2ccccc12 (stereo not given)	-2	6	0.4	2.5	-7	x	3.0
CC1CC(C)CN(S(=O)(=O)c2ccc(C(C)(C)C)cc2)C1 (stereo not given)	-29	-2	-0.5	1.3	-5	x	-1.0
O=C(O)c1csc(Cc2ccccc2)n1	-1	1	3.8	-3.1	0	-7%	-3.0
O=Cc1ccccc1-n1cncn1	0	0	-2.7	3.0	2	-2%	-4.7
O=c1cc(CN2CCN(CCO)CC2)c2cc3c(cc2o1)CCC3	-19	-5	-0.1	-1.6	x	10%	1.2
C=CC[C@H](CC(=O)N(CCO)Cc1ccccc1)C(=O)N[C@H](COC(=O)[C@H](CC=C)CC(=O)OC(C)(C)C)Cc1c[nH]c2ccccc12	x	6	x	x	x	-1%	1.8
CCC(c1nnnn1C1CCCC1)N1CCN(c2ccccc2)CC1 (stereo not given)	-16	2	7.2	1.1	99*	-3%	-6.6
Cc1cccc(N2C(=O)N3[C@H](c4ccc(F)cc4)[C@@H]4C(=O)N(C5CCCCC5)C(=O)[C@@H]4[C@]3(Cc3ccc(Cl)cc3)C2=O)c1	17	8	-1.1	0.9	-1	x	-6.0
O=C(O)c1ccc(N2CCN(c3ccc(Cl)cc3)CC2)c([N+](=O)[O-])c1	1	5	2.0	-2.8	x	7%	2.5
Cc1[nH]nc(N)c1N=Nc1ccc(Br)cc1	-4	x	-1.3	1.3	-1	1%	x
COC(=O)C(=O)/C=C(\O)c1c(C)cc(C)cc1C	-1	2	-2.4	-2.1	-9	-5%	1.3
CCN1CCN(C(=O)Nc2ccccc2OC)CC1	x	2	x	-15	-7	-4%	-6.7
COC1CC(C)NC(=S)N1 (stereo not given)	-8	-2	-0.9	-0.3	1	x	4.8
CCOC(=O)C1=C(C)n2c(s/c(=C3\C(=O)Nc4ccccc43)c2=O)=NC1c1ccc(OC)cc1 (stereo not given)	44	9	2.5	-0.1	-7	x	-2.8
C=CCOC(=O)C1=C[C@@H](c2ccc(C(F)(F)F)cc2)C[C@@H](OCCCCO)O1	5	2	-2.4	-7.2	6	x	2.7
Cc1ccc(S(=O)(=O)N2CCOCC2)cc1NC(=O)COC(=O)/C=C/c1ccco1	x	-1	x	-4.7	x	x	-2.1

Quoted from the results shown (2 entries):
SMILES	Calb FLC	B2AR ag	RanGTP-Imp inh	LANA-H2B inh	ALR H2O2 inh	Vif TR-FRET	HNF4A DNA FP
C=CCOC(=O)C1=C[C@@H](c2ccc(C(F)(F)F)cc2)C[C@@H](OCCCCO)O1	5	2	-2.4	-7.2	6	x	2.7
Cc1ccc(S(=O)(=O)N2CCOCC2)cc1NC(=O)COC(=O)/C=C/c1ccco1	x	-1	x	-4.7	x	x	-2.1

Next section.
SMILES	Calb FLC	B2AR ag	RanGTP-Imp inh	LANA-H2B inh	ALR H2O2 inh	Vif TR-FRET	HNF4A DNA FP
COc1ccc(NC(=O)Cn2c(=O)sc3ccccc32)cc1	-20	3	0.0	3.5	-22	71%	-4.7
COc1ccc(OC)c(C(=O)c2coc3ccc(O)c(CN(C)C)c23)c1	4	-2	4.1	0.5	-5	x	-1.8
CC1CCN(S(=O)(=O)c2ccc3[nH]cc(C(=O)NCCN4CCOCC4)c(=O)c3c2)CC1	4	1	4.8	-5.0	-4	-4%	-0.1
CCN(CCO)c1ncnc2onc(-c3ccc(F)cc3)c12	-1	2	-1.3	2.7	-5	2%	18
C=CCNC(=O)c1ccc2c3n(nc2c1)-c1ccc(Cl)cc1CO3	3	-9	-1.7	5.4	4	x	1.1
COc1ccc(C2C(C(=O)N3CCC(C)CC3)c3ccccc3C(=O)N2C)cc1 (stereo not given)	15	-3	2.0	-2.5	2	7%	6.4
Cc1sc(-c2ccccn2)nc1OC(=O)c1ccc(F)cc1F	-23	-7	-3.0	4.0	3	x	-1.8
CC1CCCCC1NC(=O)CNC(=O)c1cccs1 (stereo not given)	-3	-1	x	2.9	3	-3%	-1.5
Nc1c(-c2ccccc2)c(CN2CCOCC2)nn1-c1ccccc1	7	-13	1.6	2.1	28	x	-2.5
COc1ccc(-n2ncc3c2CC(C)(C)CC3NC(=O)c2c(C)cc(=O)oc2C)cc1 (stereo not given)	2	0	5.0	4.9	-1	x	-0.2
Cc1ccc(S(=O)(=O)N2CCC(C(=O)NC3CCCC3)CC2)cc1Cl	-2	3	0.7	-8.5	x	x	-2.2
Cc1ccc(N(Cc2ccc(C(=O)NN=C3CCN(C)CC3)cc2)S(C)(=O)=O)cc1C	-4	9	0.8	-2.9	-7	x	-0.9
Cc1ccc(Cn2nnc3c(=O)[nH]c(C4CCN(S(=O)(=O)c5ccccc5F)CC4)nc32)cc1	12	-2	1.5	0.0	x	x	3.0
CCOC(=O)Cn1c(=O)oc2cc(S(=O)(=O)NCCc3ccc(OCC)c(OCC)c3)ccc21	-1	12	-3.8	6.0	1	-2%&1%	1.9
O=C(Nc1cccc(C(F)(F)F)c1)/C(=C\c1ccco1)NC(=O)c1cccs1	1	5	1.6	-1.3	9	18%	3.1
COc1cc2c(cc1OC)C(c1cc(OC)c(OC)cc1[N+](=O)[O-])N(C(C)=O)CC2 (stereo not given)	4	-2	-0.2	0.7	2	9%	0.9
C=CCOC(=O)C1=C(C)N=C2SCCC(=O)N2C1c1cccs1 (stereo not given)	-3	1	-2.4	3.4	1	-2%	3.4
O=C(c1cccs1)N1CCN(c2cc(Cl)ccc2Cl)CC1	-5	8	u	0.8	52	7%	-3.0
CCCc1cc(C(=O)Nc2cc(Cl)ccc2O)no1	-8	-5	-2.2	4.8	x	x	3.6
CCC(Cc1ccccc1)n1c(=S)[nH]c2ccccc2c1=O (stereo not given)	-38	-10	1.2	3.8	x	-4%	-0.2
Cc1cc(C)c(C)c(S(=O)(=O)N2CCSCC2)c1C	-1	5	2.4	0.2	-1	x	-1.9
COC(=O)CCC(=O)Nc1ccc(NC(C)=O)cc1	-22	3	2.9	-2.8	1	-5%	4.8
CC(=O)c1c(N2CCN(C(=O)c3ccco3)CC2)nc(=S)n(-c2ccccc2)c1C	9	8	-1.3	4.5	-1	3%	-0.9
O=c1cc2c(nn1Cc1ccccc1Cl)-c1ccccc1CC2	-4	2	4.9	-97	-8	5%	-0.6
O=C(NNC(=O)C1CCCN(S(=O)(=O)c2cccc(F)c2)C1)C1CC1 (stereo not given)	-5	2	3.7	-0.7	-6	-3%	5.2
CC(=O)c1ccc(NC(=O)Nc2ccncc2)cc1	-11	2	-2.3	-1.0	-3	6%	-1.0
CN(C)S(=O)(=O)c1cccc(COc2ccccc2C(=O)Nc2ccccc2)c1	-2	6	0.7	0.4	-5	x	-2.3
CCCc1cc2c(=O)c(-c3cscn3)c(C(=O)OCC)oc2cc1O	4	-3	u	0.9	7	x	-2.5
CCOc1ccc(Oc2cc(C)nc(SC)n2)nn1	5	-6	2.8	-1.2	3	0%	3.5
O=C(NC1CCSc2ccccc21)c1ccc(Cl)c(S(=O)(=O)N2CCOCC2)c1 (stereo not given)	-2	8	1.8	-1.1	5	x	-5.2
CCOc1ccc2nc(N(CCCN(C)C)C(=O)c3ccc4c(c3)CCCC4)sc2c1	2	8	-2.3	4.1	-22	8%	3.0
COC(=O)CCC(=O)OC1(C)C(=O)C2=CN(Cc3ccco3)C(c3ccc(OC)cc3)=CC2=C(Br)C1=O (stereo not given)	-5	x	-2.5	8.7	-8	x	x
COCCNC(=S)N/N=C(\C)c1cccc(C(F)(F)F)c1	9	-4	-6.3	-4.6	1	3%	1.4
O=c1oc2ccccc2cc1-c1ccc(O)cc1O	-2	1	1.6	-3.2	99*	3%	-5.2
O=C(Nc1ccc(Br)cc1)C1C2C=CC3(O2)C1C(=O)N(CCN1CCOCC1)C3C(=O)NC1CCCCC1 (stereo not given)	-1	1	0.0	-5.0	-2	x	-3.3
